# Beta cell apopt – blocks beta cell apoptosis | INS-1E cytokine-induced death, ATP luminescence, 48 h; percent of positive-control rescue, neutral wells zero | protection from apoptosis, % (test concentration not listed) | 300,000 compounds, 0.8% hits | AID 435005;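 active means all replicates at 75% or more, or half of them and the mean; inconclusive means half reach 75% but not the mean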;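 further: 0% = cytokine-treated negative control wells and 100% = positive control rescue; higher means more ATP so stronger rescue from cytokine killing; wells of about 40 µL received 100 nL stock; the first replicate is given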
# UCH37 inh – blocks the human deubiquitinase UCH37; Q9Y5K5; purified proteasome/UCH37, Ub-AMC cleavage fluorescence; inhibition, % (no concentration beside the values); 330,000 compounds, 0.33% hits; AID 588478;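 active means mean of two replicates above 20%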;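 further: 0% = compound-free wells with enzyme and 100% = wells lacking proteasome; stock transfer was 100 nL into about 20 µL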
# Target sequence (Q9Y5K5 whole entry, looked up): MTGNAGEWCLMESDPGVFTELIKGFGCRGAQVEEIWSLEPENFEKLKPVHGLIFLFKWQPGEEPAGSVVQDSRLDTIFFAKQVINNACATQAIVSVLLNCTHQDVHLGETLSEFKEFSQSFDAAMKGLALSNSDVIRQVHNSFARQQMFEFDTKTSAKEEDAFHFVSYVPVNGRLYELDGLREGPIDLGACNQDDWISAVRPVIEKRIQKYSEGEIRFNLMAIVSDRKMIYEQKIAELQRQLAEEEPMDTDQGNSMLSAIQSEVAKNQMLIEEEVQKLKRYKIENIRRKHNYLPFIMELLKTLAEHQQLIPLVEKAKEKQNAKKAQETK
#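 Material: Human UCH37 enzyme supplied as purified proteasome complex | Schedule: 30 min preincubation with enzyme, 25 min cleavage at room temperature | Detection: AMC fluorescence 355/460 nm | Measure: % inhibition of Ub-AMC cleavage fluorescence | Controls: Wells without proteasome as full block, compound-free enzyme plus substrate as uninhibited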
# Ecoli growth – inhibitors of Escherichia coli growth; OD600, 23 h; active compounds read low; OD600 absorbance (test concentration not listed); 330,000 compounds, 0.21% hits; AID 1053175;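 active means OD600 absorbance below the run mean of sample wells minus 3.6 SD, in any replicate, cut at about 0.56 in these data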;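 further: stock transfer was 300 nL into about 60 µL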
# Ecoli rRNA inh – inhibitors of bacterial rRNA selective over humanized ribosomes; E. coli WT GFP vs humanized-ribosome RFP mutants, fluorescence, 24 h; active compounds read low; DMSO median 0, no signal -100; GFP signal change (wild-type ribosome), % (no concentration beside the values); 350,000 compounds, 1.6% hits;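 active means significant combined selectivity score with lowered wild-type GFP, culture density cut under 30%, mutant RFP and density less affected; inactive means any of these conditions unmet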; further: one replicate is shown; some compounds called inactive have numbers as strong as hits
# MLL AF4-AF9 inh – MLL-AF4/AF9 protein interaction inhibition; P42568; AlphaScreen, biotin-AF4 peptide binding to FLAG-AF9; inhibition, % at 10 µM; 350,000 compounds, 0.47% hits;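 active means every replicate reaching a set inhibition limit, whatever the replicate mean, cut at about 25% in these data; inconclusive means mean inhibition reaches that limit but some replicates miss it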;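 further: 0% = plate neutral control median and 100% = total signal loss; the record names both 10 and 1 µM as test concentration; the first replicate is given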
# Target sequence (P42568 whole entry, looked up): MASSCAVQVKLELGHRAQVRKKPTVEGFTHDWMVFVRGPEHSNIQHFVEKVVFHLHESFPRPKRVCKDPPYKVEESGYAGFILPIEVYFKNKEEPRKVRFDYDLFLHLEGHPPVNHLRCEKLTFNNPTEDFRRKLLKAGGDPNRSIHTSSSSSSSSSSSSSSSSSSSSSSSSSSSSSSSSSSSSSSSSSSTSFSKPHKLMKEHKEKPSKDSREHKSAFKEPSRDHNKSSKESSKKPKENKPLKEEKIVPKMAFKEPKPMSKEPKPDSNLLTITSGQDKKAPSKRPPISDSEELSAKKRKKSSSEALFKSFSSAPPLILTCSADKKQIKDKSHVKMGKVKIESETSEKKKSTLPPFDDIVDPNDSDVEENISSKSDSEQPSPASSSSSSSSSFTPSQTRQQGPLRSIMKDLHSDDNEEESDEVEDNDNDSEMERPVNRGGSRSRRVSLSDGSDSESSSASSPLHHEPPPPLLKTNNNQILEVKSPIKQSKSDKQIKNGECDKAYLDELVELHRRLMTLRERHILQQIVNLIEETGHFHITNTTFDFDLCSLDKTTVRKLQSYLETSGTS
# A1 inh – inhibitors of the anti-apoptotic protein A1, read as caspase activation; caspase activation, % (test concentration not listed); AID 2462; MEF A1-2A-BIM cells, Caspase-Glo 3/7 luminescence, 3 h; percent of clofoctol response, vehicle zero; 330,000 compounds, 0.066% hits;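 active means over half of replicate activation scores above 10%, or exactly half above 10 with the replicate mean above 10; inconclusive means replicate mean below 10 yet half the replicates above 10; inactive means over half of replicates below 10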;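 further: wells of about 30 µL received 50 nL stock; many hits fall short of the cut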
# T cruzi inh – blocks replication of Trypanosoma cruzi; AID 1885; T. cruzi beta-gal in NIH3T3, luminescence, 90 h; 300,000 compounds, 1.4% hits; inhibition, % (concentration not given with the values);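 active means mean inhibition across valid replicates above about 55%, limit read from the data; inconclusive means mean below that limit but half or more replicates reach it; inactive means mean below it, under half of replicates reach it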;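 further: signal also drops with host cell toxicity which is not excluded here; 0% = plate median of DMSO wells and 100% = zero luminescence signal; higher percent means less beta-gal luminescence so fewer parasites; stock transfer was 50 nL into about 50 µL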
# FGF22 binding – binders of recombinant human FGF22 by thermal shift. AID 651658. 340,000 compounds, 1.5% hits. SYPRO orange fluorescence; percent of sucrose octasulfate shift, DMSO zero. Q9HCT0. calls only at 9.99 µM;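 active means melting point raised past a set limit in the mean and every replicate; inconclusive means no clear call; three in four hits are not shown here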
# Target sequence (Q9HCT0 whole entry, looked up): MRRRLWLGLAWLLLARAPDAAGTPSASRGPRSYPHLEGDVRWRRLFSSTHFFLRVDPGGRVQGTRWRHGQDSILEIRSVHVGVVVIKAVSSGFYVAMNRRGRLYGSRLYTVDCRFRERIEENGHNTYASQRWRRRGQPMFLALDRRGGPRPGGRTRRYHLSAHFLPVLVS
# Ecoli rRNA inh OD600 – second read-out of Ecoli rRNA inh, no call of its own (marks repeat the call); OD600 change, %; measured here: OD600 growth;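 optical density of the mix in the first replicate; 0 = DMSO median and -100 = no signal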
# Ecoli rRNA inh RFP – also measured in Ecoli rRNA inh; calls as there; RFP signal change, %; measured here: RFP humanized mutant strains;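 first replicate; 0 = DMSO median and -100 = no signal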
# Starred values were filed as active, the others as inactive; i = inactive; u = inconclusive; x = not tested or not shown. Only part of the results is shown. The share of hits here may be higher or lower than overall.
SMILES,Beta cell apopt,UCH37 inh,Ecoli growth,Ecoli rRNA inh,Ecoli rRNA inh OD600,Ecoli rRNA inh RFP,MLL AF4-AF9 inh,A1 inh,T cruzi inh,FGF22 binding
O=C(CCC(=O)Nc1ccc(F)cc1)N/N=C/c1ccncc1,-9,x,x,-1,1,-3.9,-3.0,0.9,-4,i
COc1ccc(-c2nc3c(s2)CCc2onc(-c4ccc(Br)cc4)c2-3)cc1,-1,-1.0,0.7,4,-1,-1.0,x,-2.2,-2,i
Cc1ccc(OCC(=O)N(Cc2ccco2)C2CCS(=O)(=O)C2)cc1 (centres undefined),0,1.2,0.66,-2,2,1.2,0.9,1.4,-6,i
Cc1ccc(NS(=O)(=O)c2cccc(C(=O)NCC3(N(C)C)CCCCC3)c2)cc1,-2,11,0.67,-19,-17,3.7,2.3,-0.5,6,i
CCC(=O)Nc1ccc2c(c1)ncn2-c1ccc(C)cc1,-2,1.4,0.68,-26,-41,-9.2,-2.2,u,-10,i
CC(=O)c1cn(CC(=O)NCc2ccc3c(c2)OCO3)c2ccccc12,20,0.5,0.69,x,x,x,x,-0.7,3,x
Cc1ccc(C)c(OCC(=O)Nc2ccc(S(=O)(=O)N3CCN(C)CC3)cc2)c1,2,5.2,0.74,x,x,x,x,-0.5,0,x
O=C(Cc1cccs1)NCc1cccc(Cl)c1,3,1.2,0.69,12,9,4.4,-1.0,0.0,0,i
c1ccc(Cc2ccc(OCCn3cncn3)cc2)cc1,-5,5.2,0.65,x,x,x,x,0.8,-2,x
CCOc1ccccc1C(=O)N1CCN(c2cccc(Cl)c2)CC1,21,3.3,0.66,x,x,x,x,1.0,-11,x
COc1cc2c(cc1OC)-c1n[nH]c(=S)n1C(C)(C)C2,0,-0.5,0.66,-11,-8,0.9,-2.8,0.3,-13,i
Cc1ccc(-c2csc3ncnc(-n4nnc5ccccc54)c23)cc1,-5,-4.6,0.69,x,x,x,x,1.7,2,x
Nc1nnnn1/N=C/c1cc([N+](=O)[O-])ccc1O,1,x,x,9,5,0.5,-5.1,-0.6,-8,i
CC(=O)Nc1ccc2cc3ccc(NC(C)=O)cc3nc2c1,-1,-298,0.68,-17,-24,-9.1,-6.4,-3.1,9,i
COc1cccc(-n2c(Cc3cc(=O)[nH]c(=O)[nH]3)nnc2SCC(=O)N2CCCCCC2)c1,-3,5.3,0.75,3,4,-0.2,-1.8,0.1,x,i
O=c1[nH]c(C2CCN(S(=O)(=O)c3ccc(F)cc3)CC2)nc2c1nnn2Cc1ccc2c(c1)OCCO2,2,6.0,0.69,-7,-5,3.0,0.3,-2.2,1,i
Cn1nnnc1-c1cc(Cl)cc(Cl)c1,-1,4.3,0.7,16,15,1.1,-0.3,1.6,2,x
COc1cc(C(=O)NC(=S)NC(C)C)cc(OC)c1OC,-4,3.3,0.66,x,x,x,x,1.3,-11,x
Cc1ccc(N=C2NC(=O)CS2)cc1C,-8,3.1,0.71,-2,10,-1.0,-1.4,0.9,-7,i
CCc1ccc([C@@H]2CC=C(C(=O)O)[C@H](c3ccc(F)cc3)N2S(=O)(=O)c2ccc(C)cc2)cc1,2,0.4,x,-38,-54,7.9,-0.2,0.3,x,i
CCOC(=O)c1c(C)[nH]c(C(=O)Nc2ccc(NC(C)=O)cc2)c1C,-1,1.3,0.7,-27*,-15*,-0.4*,1.3,0.4,9,i
Cc1ccc2c(c1)N(CC(=O)NCCCN1CCCC1)C(=O)CO2,-6,2.7,0.7,3,-4,5.2,-2.7,0.6,-11,i
COc1ccc(C2=NS(=O)(=O)N(C)C(C(=O)NC3CCCCC3)=C2)cc1OC,-1,4.4,0.72,4,17,-3.7,-11,0.0,8,i
COc1ccc(OC)c(/C=c2\sc3nc(-c4cccs4)nn3c2=O)c1,-2,x,x,2,3,-1.9,x,-0.7,-16,x
CSc1nc(N)nc2c1ncn2CC(=O)N[C@H](C)c1cccc2ccccc12,-3,x,x,x,x,x,3.6,0.4,x,i

# Brought forward from above: 3 compounds, followed by the next part.
SMILES,Beta cell apopt,UCH37 inh,Ecoli growth,Ecoli rRNA inh,Ecoli rRNA inh OD600,Ecoli rRNA inh RFP,MLL AF4-AF9 inh,A1 inh,T cruzi inh,FGF22 binding
COc1ccc(C2=NS(=O)(=O)N(C)C(C(=O)NC3CCCCC3)=C2)cc1OC,-1,4.4,0.72,4,17,-3.7,-11,0.0,8,i
COc1ccc(OC)c(/C=c2\sc3nc(-c4cccs4)nn3c2=O)c1,-2,x,x,2,3,-1.9,x,-0.7,-16,x
CSc1nc(N)nc2c1ncn2CC(=O)N[C@H](C)c1cccc2ccccc12,-3,x,x,x,x,x,3.6,0.4,x,i
C=C(C)C1CCC2(C(=O)O)CCC3(C)C(CCC4C5(C)C(C=O)C(O)C(C)(C)C5CCC43C)C12 (centres undefined),x,6.0,0.7,x,x,x,3.6,-0.5,15,i
Cc1ccc(C(=O)NCC(=O)Nc2ccncc2)cc1,-13,3.4,0.74,9,8,0.9,-0.9,1.9,-3,i
O=C(CSc1ccc2ccccc2c1Br)Nc1cccc(S(=O)(=O)NC2=NCCCCC2)c1,2,1.4,0.77,x,x,x,1.2,0.5,-5,i
CCc1ccccc1N1CC23C=CC(O2)C(C(=O)OCC(C)C)C3C1=O (centres undefined),-3,3.9,0.77,4,5,-0.7,-0.9,0.0,-4,i
O=C1CC(N2CCN(c3ccc(F)cc3)CC2)C(=O)N1Cc1cccs1 (centres undefined),x,2.6,0.73,x,x,x,x,0.0,2,x
COc1ccc(CCNC(=O)CCN2C(=O)COc3ccc(C)cc32)cc1OC,-5,0.7,0.67,x,x,x,x,-0.3,14,x
O=C(CN(c1ccccc1F)S(=O)(=O)c1ccccc1)Nc1ccc2c(c1)OCCO2,x,6.0,0.68,1,-2,-0.5,-2.8,1.7,9,i
CCc1ccc(NC2CC(=O)N(c3ccc(OC)cc3OC)C2=O)cc1 (centres undefined),8,4.3,0.71,4,2,-0.2,6.6,-0.1,x,i
CC(=O)c1sc(NC(=O)C(C)C)nc1C,-7,3.7,0.7,x,x,x,x,-0.4,-8,x
COc1cccc(CNS(=O)(=O)c2ccc(-n3cnnn3)c(C)c2)c1,-1,-0.7,0.7,6,13,0.8,0.5,0.7,-3,i
Cc1ccc(NC2OC(CO)C(O)C(O)C2O)cc1 (centres undefined),0,-0.7,0.68,x,x,x,x,0.1,-8,x
O=C1CC(NNc2ccccc2)C(=O)N1c1ccccc1 (centres undefined),1,x,x,-15,10,8.3,0.4,-0.4,8,i
O=C(O)Cc1ccc(-c2ccccc2-c2ccccc2)cc1,2,3.1,0.77,x,x,x,x,0.4,-9,x
COc1ccc(-c2cn3nc(SCC(=O)NCC4CCCO4)ccc3n2)cc1 (centres undefined),2,i,0.73,-4,-4,-3.9,-1.9,-9.5,0,i
CCC(C)C(=O)Nc1nc(C)c(-c2csc(Nc3cc(OC)ccc3OC)n2)s1 (centres undefined),18,0.2,0.74,9,5,0.0,14,-0.7,-3,i
COC(=O)c1c(NC(=O)COC(=O)Cn2cnc3ccccc32)sc2c1CCCC2,-3,2.7,0.68,-13,-12,-8.3,0.7,0.2,1,i
COc1cc(OC)cc(-c2nnc(NC(=O)CCS(=O)(=O)c3ccccc3)o2)c1,x,0.1,0.64,-1,-1,-1.7,-3.4,0.4,-16,i
CCC(=O)N1c2ccc(S(=O)(=O)CCC(=O)NC3CCCC3)cc2CC1C (centres undefined),-3,-1.9,0.72,x,x,x,x,-0.6,-8,x
Cc1ccccc1S(=O)(=O)NC1=NCCCCC1,-6,0.1,0.63,x,x,x,x,-0.4,-12,x
O=C(CCC(=O)N(CC(=O)NC1CCCCC1)Cc1cccs1)Nc1ccccn1,-1,-0.6,0.69,10,19,0.5,1.1,-1.7,11,x
C1=C(c2ccccc2)Nc2ncnn2C1c1ccccc1 (centres undefined),7,-7.6,x,-11,-3,-2.3,-0.7,-1.0,-9,i
CCOc1ccc(NC(=O)Cn2nnc(C(=O)NCc3ccco3)c2N)cc1,4,1.1,0.68,x,x,x,x,-0.6,-7,x
O=C(NCc1ccc(F)c(F)c1)C1CCC(=O)N(CCc2ccccc2)C1 (centres undefined),x,2.2,0.7,-7,-3,0.4,-1.4,x,-5,i
COc1ccc(OCc2nnc(SCC(=O)NC3CCCCC3)o2)cc1,4,5.0,0.67,0,-1,0.0,0.5,0.2,4,i
O=C(COC(=O)C12CC3CC(CC(C3)C1)C2)Nc1ccc([N+](=O)[O-])cc1Cl,-4,3.0,0.74,x,x,x,x,0.7,3,x

# Two entries drawn at random from the list so far:
SMILES,Beta cell apopt,UCH37 inh,Ecoli growth,Ecoli rRNA inh,Ecoli rRNA inh OD600,Ecoli rRNA inh RFP,MLL AF4-AF9 inh,A1 inh,T cruzi inh,FGF22 binding
O=C(CCC(=O)N(CC(=O)NC1CCCCC1)Cc1cccs1)Nc1ccccn1,-1,-0.6,0.69,10,19,0.5,1.1,-1.7,11,x
O=C(CN(c1ccccc1F)S(=O)(=O)c1ccccc1)Nc1ccc2c(c1)OCCO2,x,6.0,0.68,1,-2,-0.5,-2.8,1.7,9,i

# (list continues)
SMILES,Beta cell apopt,UCH37 inh,Ecoli growth,Ecoli rRNA inh,Ecoli rRNA inh OD600,Ecoli rRNA inh RFP,MLL AF4-AF9 inh,A1 inh,T cruzi inh,FGF22 binding
CCOc1cccc(/C=N/NC(=O)C2CCCC2)c1O,4,x,x,2,5,-6.0,-1.2,2.2,-17,i
COc1ccc(/C(N)=N/OC(=O)c2c(-c3ccccc3Cl)noc2C)cc1OC,7,-0.1,0.67,-3,2,3.4,-0.7,1.5,57*,i
Cc1noc(C)c1COc1ccccc1C(=O)N(C)Cc1ccco1,-6,3.7,0.7,5,14,-2.1,-6.2,-0.1,x,i
OCc1cn(-c2ccccc2)nn1,-2,3.6,0.68,16,19,-0.4,-0.2,3.8,-18,i
O=S(=O)(Nc1ccccc1N1CCOCC1)c1ccc(F)c(Cl)c1,8,2.1,0.72,-4,-26,-14,-1.6,-0.3,-3,i
CC(=O)Nc1ccc(C(=O)CSc2cc(C)c3cccc(C)c3n2)cc1,-10,4.5,0.71,4,3,-2.4,-2.3,0.0,23,i
Cc1sc2ncnc(OCC(=O)NC3CCS(=O)(=O)C3)c2c1C (centres undefined),2,1.5,0.7,11,7,1.0,-21,0.0,-4,i
CC(=O)Nc1ccc(C(=O)NNC(=O)c2cc([N+](=O)[O-])cc([N+](=O)[O-])c2)cc1,-3,7.8,0.7,14,9,9.2,-1.9,1.1,3,x
O=C1CC(c2ccc(O)cc2)Oc2cc(O)ccc21 (centres undefined),-7,0.6,0.71,x,x,x,0.6,-0.1,-11,i
O=c1[nH]cc(O)c(=O)[nH]1,x,0.8,0.75,x,x,x,-1.7,0.1,8,i
COc1ccc(/C=C/C(=O)c2cc(Cl)ccc2O)c(OC)c1,-2,4.5,0.7,1,5,-0.3,4.8,0.2,-7,i
Cc1noc(C)c1CSc1ncnc2sc3c(c12)CCC(C)C3 (centres undefined),2,-0.8,0.72,x,x,x,x,-0.8,4,x
O=C(O)C(Cc1ccccc1)NS(=O)(=O)c1ccc2c(c1)OCCO2 (centres undefined),1,3.0,0.69,x,x,x,x,0.7,2,x
